Assay outcomes as filed in PubChem.
SARS PLP yeast: SARS-CoV PLP inhibition in yeast. S. cerevisiae expressing SARS-CoV PLpro, growth rescue; control for the full effect not named in the record. Potency, µM (top dose mostly 32.9 µM), inactives show top-dose activity, positive = growth rescue. 330,000 compounds, 0.19% hits. AID 485353; active means well fitted rising curve with a large enough effect; inconclusive means small, poorly fitted or top-dose-only effect; inactive means no such curve, though single readings can be large or run the other way; note: 0% is about no effect; nearly all actives have a fitted effect of over 55% in size; growth read by luminescence after 48 h
StopGo reporter: lowers the luciferase signal of an FMDV 2A StopGo reporter | Potency, µM (doses to about 57.9 µM), inactives show top-dose signal change, negative = less light | 410,000 compounds, 1.2% hits | human cells with a luciferase reporter of 2A StopGo recoding; control for the full effect not named in the record; active = well fitted falling curve with a large enough effect; inconclusive = small, poorly fitted or top-dose-only effect; inactive = no such curve, though single readings can be large or run the other way; tested in HEK293T cells; note: % is set by controls: 0 for no effect and ±100 for the full control effect; nearly all actives have a fitted effect of over 45% in size; luciferase light after 4 h
NS1 function inh: influenza NS1 inhibition; S. cerevisiae slowed by influenza A NS1, growth recovery by OD600; Potency, µM (titrated, usually from 46.1 µM), for the others: at the highest dose activity, positive = more growth; 270,000 compounds, 0.4% hits; active means well fitted rising curve with a large enough effect; inconclusive means small, poorly fitted or top-dose-only effect; inactive means no such curve, though single readings can be large or run the other way; note: nearly all actives have a fitted effect of over 50% in size
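Growth recovery, yeast-based: influenza A NS1 expressed in S. cerevisiae causes slow growth, and suppressors are detected by OD600. The parent strain without NS1 is used as positive control.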
MARV entry inh: inhibitors of Marburg virus binding or cell entry | Marburg virus pseudotyped entry inhibition, cell reporter; control for the full effect not named in the record; about a third of the inactives were read at about 46 µM | Potency, µM (titrated, usually from 37.8 µM), for the others: top-dose activity change, negative = inhibition, usual class: inhibitors | 300,000 compounds, 1.8% hits; active = well fitted inhibition curve with a large enough effect; inconclusive = small, poorly fitted or top-dose-only effect, or effect the other way; inactive = flat fitted curve, though single readings scatter; tested in HEK293 cells; about a fifth of its hits are not listed in these tables; note: % is set by controls: 0 for no effect and ±100 for the full control effect; luciferase read-out
RE007 growth inh: less growth of the S. pombe RE007 Vpr strain | S. pombe RE007 Vpr strain, BacTiter-Glo ATP luminescence, 24 h; control for the full effect not named in the record | 360,000 compounds, 0.21% hits | Potency, µM (doses to about 92.2 µM), without a hit: top-dose activity change, negative = less growth; active = well fitted falling curve with a large enough effect; inconclusive = small, poorly fitted or top-dose-only effect; inactive = no such curve, though single readings can be large or run the other way;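 note: % is set by controls: 0 for no effect and ±100 for the full control effect; nearly all actives have a fitted effect of over 50% in size; the assay follows cell death caused by Vpr and the record does not say whether a fall means rescue or toxicity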
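Fission yeast RE007 carrying one integrated HIV-1 vpr copy, seeded at OD 0.01 in PMG+AL medium with 23 nL pinned compound. Grown 24 h at 30 degrees; viability read by BacTiter-Glo luminescence after 5 min.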
Cruzain noTriton: cruzain (T. cruzi) inhibition without detergent. P25779. purified cruzain, Z-FR-AMC fluorescence, no detergent. Potency, µM, for inactives: max response, negative = inhibition, usual class: inhibitors. 200,000 compounds, 2.3% hits. AID 1476;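 note: plate controls were enzyme without inhibitor for no effect and buffer without enzyme for full effect; nearly all actives have a fitted effect of over 40% in size; top concentration of the series not given in the record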
Target sequence (P25779 123-467 limits assumed): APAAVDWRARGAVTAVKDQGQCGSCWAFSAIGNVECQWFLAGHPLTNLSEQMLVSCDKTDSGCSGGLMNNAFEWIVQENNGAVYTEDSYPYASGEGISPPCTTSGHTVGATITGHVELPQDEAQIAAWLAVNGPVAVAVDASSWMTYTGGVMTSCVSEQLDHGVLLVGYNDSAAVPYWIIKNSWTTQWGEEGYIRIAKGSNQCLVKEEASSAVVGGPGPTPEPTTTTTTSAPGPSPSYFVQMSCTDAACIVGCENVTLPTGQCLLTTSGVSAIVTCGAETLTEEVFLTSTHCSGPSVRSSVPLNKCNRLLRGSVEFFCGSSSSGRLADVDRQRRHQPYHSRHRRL
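Detergent-free condition (0.00005% Triton X-100) in acetate buffer pH 5.5 with DTT. 1.5 nM enzyme and compound were pre-mixed 15 min, then 2 uM Z-FR-AMC substrate added; reaction progress from fluorescence change between first and third reads (60 s).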
Cruzain Triton: blocks cruzain activity in presence of Triton detergent; P25779; purified cruzain, Z-FR-AMC fluorescence, 0.01% Triton; Potency, µM, inactives show max response, negative = inhibition, most hits filed as inhibitors; 200,000 compounds, 0.43% hits;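 note: plate controls were neutral wells for no effect and buffer without enzyme for full effect; nearly all actives have a fitted effect of over 40% in size; top concentration of the series not given in the record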
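Compounds were screened in titration against cruzain (1.5 nM) with 0.01% Triton X-100 to counter colloidal aggregation. Activity was the AMC fluorescence increase over 60 s after adding 2 uM Z-FR-AMC at pH 5.5.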
LASV entry inh: inhibitors of Lassa virus binding or cell entry; Lassa virus pseudotype entry inhibition, cell reporter; control for the full effect not named in the record; Potency, µM (doses to about 37.9 µM), without a hit: at the highest dose activity change, negative = inhibition, most hits filed as inhibitors; 300,000 compounds, 1.2% hits; active means well fitted inhibition curve with a large enough effect; inconclusive means small, poorly fitted or top-dose-only effect, or effect the other way; inactive means flat fitted curve, though single readings scatter; tested in HEK293 cells; note: % is set by controls: 0 for no effect and ±100 for the full control effect; nearly all actives have a fitted effect of over 50% in size; luciferase read-out
Numbers without * were called inactive; ? = inconclusive; . = no result given; & = joins results of further samples; [ ] = remark or other dose. Unless noted, calls come from the whole dose curve; as a rule, active = well fitted curve in the direction sought with a large enough effect; inconclusive = small, poorly fitted or top-dose-only effect, or another doubt; inactive = no such curve, though single readings can be large; an effect the other way counts as inactive or inconclusive. Potency is the fitted concentration of half-maximal effect.

SMILES	SARS PLP yeast	StopGo reporter	NS1 function inh	MARV entry inh	RE007 growth inh	Cruzain noTriton	Cruzain Triton	LASV entry inh
CCCC(=O)NCCCc1nc2ccccc2n1CC	1%	-20%	-1%	.	-3%	-8%	-0.1%	.
Cc1nn(CC#N)c(=O)n1-c1ccc(C(C)C)cc1	-3%	4%	1%	-8%[46.1 µM]	22%	.	.	-3%
Cc1ccc(N2C(=O)/C(=C/N3CCN(C(=O)c4ccco4)CC3)C(=O)NC2=S)cc1C	0%	0%	11%	3%	11%	-3%	-1.9%	6%
CCOC(=O)N1CCC(NS(=O)(=O)c2ccc(C#N)cc2)CC1	0%	-5%	1%	-11%	209%	.	.	-13%
Cc1cccc(CNC(=O)Cn2ccc3cc(S(=O)(=O)N4CCC(C)CC4)ccc32)c1	.	7%	.	.	.	-11%	-9.6%	1%[46.1 µM]
Oc1ccc(-c2nncn2-c2ccccc2)cc1	0%	-2%	4%	.	0%	.	.	.
S=C(NCc1ccc(Cl)cc1)NC1CCCCC1	-24%	20%	-55%	7%	-11%	-12%	-4.1%	-11%
Cn1ccsc1=NC(=O)c1ccc(OC(F)(F)F)cc1	-8%	29%	-22%	?	-23%	.	.	-3%[46.1 µM]
COc1ccc(C)cc1N(CC(=O)NC1CCCC1)C(=O)CCC(=O)Nc1nc(C)cs1	2%	-18%	2%	2%[46.1 µM]	3%	.	.	14%
COc1ccc(C(=O)NNC(=S)NC(=O)c2ccc(Cl)cc2)cc1	.	-23%	.	?	?	.	.	?
CCc1ccc(NC(=O)NCCN2CCN(c3ccc(OC)cc3)CC2)cc1	-2%	-7%	3%	.	-3%	.	.	.
Cc1ccc2oc(=O)ccc2c1	.	0%	.	.	-10%	-6%	3.7%	.
Cc1ccc(-c2nnn(CC(=O)Nc3cccc4c3CCCC4)n2)o1	-5%	4%	-9%	?	7%	?	1.9%	?
Nc1ccc(C(=O)OCC(=O)N2CCN(C(=O)c3ccco3)CC2)cc1[N+](=O)[O-]	-2%	-20%	1%	25%	-2%	-3%	-3.3%	-25%
CC(CCC(=O)Nc1nncs1)C(=O)O (stereo not drawn)	-1%	0%	?	.	10%	11%	4.4%	.
CN(C)c1nc(-c2ccccc2)nnc1C(F)(F)F	-1%	-2%	-12%	12%	-21%	-1%	6.8%	20%
COCCNC(=O)c1cnn(-c2ccc(C)cc2C)c1C1CCN(C(=O)OC(C)(C)C)CC1	.	-9%	.	.	.	?	-0.9%	?
CC(C)CN(C(=O)CCC(=O)OCC(=O)NCCc1ccccc1)c1c(N)n(CC(C)C)c(=O)[nH]c1=O	-12%	-5%	-12%	11%[46.1 µM]	4%	.	.	-4%
O=C(CSc1nc2ccc(S(=O)(=O)N3CCOCC3)cc2[nH]1)N1CCOCC1	-5%	-2%	-80%	17%	-14%	-12%	-0.7%	14%
CC(C)CSc1nc2c(c(=O)[nH]c(=O)n2C)n1CC(O)COc1cccc2ccccc12 (stereo not drawn)	?	?	14%	-15%	-1%	?	-1.6%	-9%
COC(=O)CC1=C(C(=O)OC)[C@@H](c2ccccc2[N+](=O)[O-])C(C#N)=C(N)O1	1%	0%	2%	23%	14%	.	.	7%
CC(C)(C)c1ccccc1OCCN1CCCC1	3%	-8%	0%	-4%	6%	-1%	10%	-20%
CC(=O)Nc1cccc(S(C)(=O)=O)c1	10%	4%	30%	12%	-15%	5%	0.4%	-3%
CCOC(=O)C1(Cc2cccc(F)c2)CCN(Cc2cn(CC)nc2C)CC1	0%	-25%	-2%	?	2%	.	.	2%
Cc1cccc(NC(=O)C23CCC(C)(C(=O)O2)C3(C)C)c1 (stereo not drawn)	-1%	-20%	3%	-2%	-16%	.	.	11%
COc1ccccc1N(CC(O)COc1ccccc1)S(=O)(=O)c1ccccc1 (stereo not drawn)	17%	26%	-20%	1%	-17%	0%	-6.8%	-19%
Cc1cccc(NC(=O)CN(CC2CCCO2)C(=O)c2oc3ccc(F)cc3c2C)c1C (stereo not drawn)	0%	-10%	.	-27%	20%	.	.	-2%
CC(=O)Nc1ccc(NC(=O)COc2cc(O)c3c(c2)OC(C)(C)CC3=O)cc1	-7%	10%	1%	.	6%	.	.	.
COc1ccc(C2CC(=O)c3cc(-c4nc(-c5ccc(Cl)cc5)cs4)c(=O)[nH]c3C2)cc1OC (stereo not drawn)	.	4%	.	17%[46.1 µM]	.	-1%	-2.2%	-3%[46.1 µM]
COc1ccc(NC(=O)CCS(=O)(=O)c2ccc3c(c2)CCN3C(C)=O)cc1	29%	-3%	3%	.	-5%	.	.	.
NC(=O)c1cc(Br)cc(C2CCCCC2)c1O	2%	-16%	-51%	?	?	.	.	13%[46.1 µM]
O=C(CCc1nc2ccccc2s1)OCc1ccccc1	-11%	-12%	13%	0%	-20%	6%	-2.4%	0%
Cc1cccc(C(=O)n2nc(C)c(S(=O)(=O)N3CCOCC3)c2C)c1	.	9%	.	.	.	4%	-0.8%	7%[46.1 µM]
COc1ccc(NC2c3ncccc3C(=O)N2Cc2cccs2)cc1 (stereo not drawn)	1%	9%	-5%	.	8%	.	.	.
Cc1cccc(NC(=O)Cn2c(=O)n(CCC(=O)NC3CCCC3)c(=O)c3ccccc32)c1	-4%	-12%	-5%	-18%	19%	?	3.3%	-15%
COCCN(CC(=O)NCc1ccc(OC)cc1)C(=O)CCC(=O)Nc1nccs1	2%	-18%	-9%	?	-4%	8%	6.3%	1%
Cc1ccc(C)c(N(C)C(=O)C2CCN(S(=O)(=O)c3cccc4nsnc34)CC2)c1	.	0%	.	?	.	5%	-1.5%	-14%[46.1 µM]
COc1ccc(/C(O)=C2/C(=O)C(=O)N(CCN(C)C)C2c2ccccn2)cc1OC (stereo not drawn)	2%	9%	4%	5%	35%	-5%	-1.7%	17%
COc1ccc(C(=O)NCC(=O)OCc2c(Cl)cccc2Cl)cc1OC	0%	4%	.	?	-1%	.	.	-5%
CC(=O)NS(=O)(=O)c1ccc(NC(=O)c2cc(-c3cccs3)nc3ccccc23)cc1	1%	-17%	8%	7%	9%	5%	-0.4%	4%
CCCCn1c(C2CC(=O)N(c3ccc(OCC)cc3)C2)nc2ccccc21 (stereo not drawn)	.	-14%	.	23%[46.1 µM]	.	-2%	-5.9%	0%[46.1 µM]
CCOC(=O)N1CCN(C(=O)c2cc(COc3ccc(Cl)cc3OC)on2)CC1	-9%	?	-33%	.	-6%	.	.	.
CCOc1ccc(CNC(=O)CCCc2cn(C)c3ccccc23)cc1	-2%	2%	-38%	?	-4%	.	.	?
CCOC(=O)c1c(NC(=O)c2nn(CC)cc2Br)sc2c1CCCCC2	-4%	.	5%	?	10%	-16%	-3.9%	-25%
Cc1cc(C(=O)NC(C)C)on1	-9%	11%	3%	1%	4%	-7%	5.1%	-21%
COc1ccc(/C=C/C(=O)Nc2ccc3nc(N4CCC(C)CC4)cc(C)c3c2)cc1	.	?	.	12%[46.1 µM]	.	?	-10%	-2%[46.1 µM]
O=C(N=Nc1c(O)n(C2OC(=O)c3ccccc32)c2ccccc12)c1ccc(O)cc1 (stereo not drawn)	-2%	20%	1%	10%	8%	1%	2.1%	22%
CCOc1ccc2oc(=O)cc(CN3CCN(Cc4ccc(C)cc4)CC3)c2c1	.	-23%	.	?	.	10%	-1.1%	0%[46.1 µM]
CCC(=O)N(CC)c1nc(-c2cc(OC)ccc2OC)cs1	-8%	.	9%	-37%	7%	2%	-5.0%	-10%
CCN(C(=O)CCNC(=O)Cn1cnc2ccccc2c1=O)c1cccc(Cl)c1	1%	-12%&-15%	5%	6%&6%[46.1 µM]	7%	4%	1.2%	10%
Cc1sc(N/N=C/c2cccs2)nc1-c1ccccc1	2%	-14%	16%	7.9µM*	-7%	?	-6.8%	?
COc1ccc(OC)c(NC(=O)CSc2nnc(C)n2Cc2ccccc2)c1	5%	-5%	-4%	-27%	6%	-4%	5.0%	2%
Cc1ccc(-c2cc(=O)c3ccc(F)cc3[nH]2)cc1	-2%	35%[activator]	0%	.	3%	.	.	.
Fc1ccc(CNCCc2ccccc2F)cc1	6%	-8%	-7%	-20%	-18%	3%	-2.0%	14%
CCCOC(=O)c1c(-c2ccccc2)c(-c2ccccc2)nn(C)c1=O	.	-5%	.	21%[46.1 µM]	.	-8%	-5.5%	8%[46.1 µM]
COc1cccc(CNC(=O)Cc2ccc(-n3c(=O)[nH]c4ccccc4c3=O)cc2)c1	15%	2%	3%	?	2%	-7%	-2.2%	?
CCOc1ccc(CNC(=O)C(CC)n2nc(C)n3c(cc4occc43)c2=O)cc1OC (stereo not drawn)	-4%	11%	-1%	0%	2%	3%	-1.5%	9%
Cc1cc(C)c2c(n1)nn1c(NCCCN3CCOCC3)cc(C)nc21	.	18%	-1%	5%&5%	-17%	.	.	-1%
O=C(Nc1cccc(NC(=O)c2ccccc2)n1)c1ccccc1	-15%	-7%	-18%	-15%	-25%	.	.	-2%
O=C(COC(=O)CNC(=O)c1ccc(Br)o1)Nc1ccc2c(c1)OCCO2	1%	-15%	-4%	9%	17%	11%	-1.3%	2%
More compounds follow.
SMILES	SARS PLP yeast	StopGo reporter	NS1 function inh	MARV entry inh	RE007 growth inh	Cruzain noTriton	Cruzain Triton	LASV entry inh
CC1(C)CC(=O)C2=C(C1)Nc1ccccc1NC2c1nc2ccccc2[nH]1 (stereo not drawn)	-4%	-25%	1%	.	-12%	-19%	-4.7%	.
O=C1N/C(=C\c2ccsc2)C(=O)N1Cc1ccc(F)cc1	0%	-3%	-1%	-18%	-12%	?	-2.4%	0%
CCc1ccc(NCc2cc3cc4c(cc3n(CC(=O)Nc3ccccc3OC)c2=O)OCCO4)cc1	.	13%	.	.	.	-16%	-1.3%	0%[46.1 µM]
CCc1cc2c(SCC(=O)NC(=O)c3cccn3C)ncnc2s1	-2%	0%	.	?	8%	.	.	?
Cc1nc([N+](=O)[O-])c(Br)n1CC(=O)c1ccccc1	-10%	?	-49%	?	1%	-4%	1.6%	-27%
Cc1ccc(-n2nc(C)cc2N)c(C)c1	1%	3%	-2%	-1%[46.1 µM]	13%	.	.	-2%

This is a random part of the collection. Share with any hit: about 4.6%.
